# Screening data (PubChem)
# RVFV N-RNA FP – RVFV nucleocapsid-RNA interaction inhibition; P21700; RVFV N-RNA binding, fluorescence polarization; stronger effect = lower value; % bound, % (no concentration beside the values); actives 0.1% (n = 20,000);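 active = between 0 and 58% in either replicate with normal brightness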;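 note: 100 nL library stock added to about 12 µL; 100% = protein and probe without compound and 0% = probe alone; numbers are from one replicate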
# Target sequence (P21700 whole entry, looked up): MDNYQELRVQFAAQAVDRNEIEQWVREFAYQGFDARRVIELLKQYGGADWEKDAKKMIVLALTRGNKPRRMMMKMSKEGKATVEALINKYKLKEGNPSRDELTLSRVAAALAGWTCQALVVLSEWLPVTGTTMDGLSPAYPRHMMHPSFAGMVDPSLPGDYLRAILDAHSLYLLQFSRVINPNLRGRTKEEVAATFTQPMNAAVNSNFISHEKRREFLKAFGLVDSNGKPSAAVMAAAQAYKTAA
# * marks the source's active call; other numbers are inactive results; & = joins results of further samples. This is a subset, so the mix of outcomes need not match the whole.
SMILES,RVFV N-RNA FP
NNC(=O)C(O)c1ccc(Cl)cc1 (stereo not drawn),111
CNC(=S)NNc1ncccc1-n1cccc1,100
NC(N)=NOCC[C@H](N)C(=O)O,99
CCOc1ccc(CC(=O)Nc2cccc(-c3ccc(N4CCOCC4)nn3)c2)cc1,104
C=CCn1c(COc2ccccc2)nnc1SCC(=O)N1CCc2ccccc21,95
CC(SCc1ccccc1)C(=O)NN=C1CCN(C)CC1 (stereo not drawn),103
CSc1nc2c(=O)n(C)c(=O)n(C)c2n1C,96
Cc1nc(C)c(-c2ccn(C(=O)Nc3c(-c4c(Cl)cccc4Cl)noc3C)n2)s1,92
Cc1c(Cl)cccc1NS(=O)(=O)c1cc2c3c(c1)C(C)C(=O)N3CCC2 (stereo not drawn),95
CCOC(=O)c1ccc(Nc2nc(Nc3ccc(C(=O)OCC)cc3)nc(N3CCOCC3)n2)cc1,108
CS(=O)(=O)N1CCN(C(=O)COc2ccc(F)c(Cl)c2)CC1,91
Cc1onc(-c2ccccc2)c1NC(=O)N1CCN(C2c3ccccc3-c3ccccc32)CC1,105
O=C(c1cc(F)cc2c1OCOC2)N1CCN(C(c2ccccc2)c2ccccc2)CC1,98
CCCCSc1nnc(-c2ccco2)n1N,99
CCCCC(=O)Nc1ncc(Br)s1,99
[O-]/[N+](=C/c1ccc(F)cc1)c1ccccc1,93
CCOC(=O)C1CCN(c2ncnc3nc[nH]c23)CC1,102
CNC(=S)Nc1ccc(C(N)=O)cc1,97
CS(=O)(=O)Nc1cc(Cl)ccc1Oc1ccccc1,94
N#Cc1cccc(CSc2nnc(-c3ccccc3O)n2Cc2ccccc2)c1,94
CCOC(=O)c1ccccc1NC(=O)c1ccccc1N(C)S(C)(=O)=O,102
CC(C)(C)c1ccc(S(=O)(=O)Nc2ccc(-n3ccnc3)cc2)cc1,100
CC1CC(=O)Nc2ccccc2N1C(=O)Nc1ccccc1 (stereo not drawn),103
Nc1nnc2sc(SCC(=O)O)nn2c1=O,101
Cc1csc2sc(/C=C(\C#N)S(=O)(=O)c3cccs3)c(C)c12,99
Cc1onc(-c2c(Cl)cccc2Cl)c1/C(N)=N/OC(=O)C(C)(C)C,93
COc1ccc(C(=O)N2CCCC2=O)cc1,100&94
COC(=O)c1ccc(S(=O)(=O)N2CCCN(C(=O)OC(C)(C)C)CC2)n1C,98
COc1cccc(/C=N/NC(=O)c2cccc(Cl)c2)c1O,93
CNS(=O)(=O)c1ccc(CCC(=O)N2CCCCC2)cc1,97
C=CCNC(=O)c1ccc(OCCCC)cc1,95
CC(=O)[C@H]1CC[C@H]2[C@@H]3CCC4=CC(=O)CC[C@]4(C)[C@H]3CC[C@]12C,95&93&97
CCOC(=O)c1cn[nH]c1NC(=S)Nc1ccccc1,99
NC(=O)c1ccc(N=Cc2ccc[nH]2)cc1,104
Oc1oc(-c2ccccc2)cc1C=Nc1ccccc1,100
COC(=O)/C=c1/s/c(=C(/C#N)C(N)=O)n(-c2ccccc2)c1=O,87
OC(c1ccco1)c1nccc2ccccc12 (stereo not drawn),88
COc1ccc(/C=N/N=C2\CC(C)(C)Cc3n[nH]c(=O)cc32)cc1OC,85
N#Cc1ccc2snnc2c1,96
Cc1cccc(C)c1OCCCCN1CC(C)OC(C)C1 (stereo not drawn),89
C#CCN(C)CCCOc1ccc(Cl)cc1Cl,99&98
COc1cc2c(cc1OC)C(C)N(C=C(C#N)C#N)CC2 (stereo not drawn),96
CC(C)(C)NC(=O)CCN1C(=O)/C(=C\c2ccco2)SC1=S,96
CCC(C(=O)N1CCC(C)CC1)c1ccccc1 (stereo not drawn),95
O=c1c2oc3ccccc3c2ncn1Cc1ccccc1,99
Cc1ccccc1C(OCCN(C)C)c1ccccc1 (stereo not drawn),102&98&101
CCCNc1c(N)n(-c2ccccc2)c(=O)[nH]c1=O,93
Cc1cc(NS(=O)(=O)c2ccc(NC(=S)NCc3ccccc3)cc2)no1,92
O=C(CSc1ccc(F)cc1)N1CCCC1,100
CN1CCC(NC(=O)c2cc(Br)ccc2Cl)CC1,100
CN1C(=O)/C(=C/c2cn(CC(=O)NCc3ccco3)c3ccccc23)C(=O)NC1=S,74
COC(=O)C(C(=O)Nc1ccccc1C)C1CCCCCC1 (stereo not drawn),99
N#CCCN(Cc1ccncc1)C(=S)NC1CC2C=CC1C2 (stereo not drawn),98
CC(=O)Nc1ccc(OCc2ccc3c(c2)OCO3)cc1,95
Cn1c2c(c(=O)c3ccccc31)CCCC2,96
O=C(Nc1c(C(=O)Nc2ccc3c(c2)OCO3)oc2ccccc12)c1ccco1,104
CN1CCC(N(C)C(=O)c2ccc3nccnc3c2)CC1,101
CCC(=O)c1ccc(O)cc1,110
CCSc1n[nH]c(-c2ccc(Cl)cc2)n1,95
CCOC(=O)C1CCN(CCC(C)(C)c2ccc(C)o2)CC1,90

# Next records follow.
SMILES,RVFV N-RNA FP
CCOC(=O)N1CCC2(CC1)C(C#N)=C(N)Oc1c2c(C)nn1-c1cccc(Cl)c1,99
N/C(=N\C(=S)Nc1ccccc1)N1CCN(Cc2ccccc2)CC1,99
C=CCNC(=S)Nc1c(C)nn(CC)c1C,97
Cc1cc(C(=O)NCC2(c3ccccc3)CCOCC2)oc1C,87
Cc1nc2ccccc2nc1N1CCC(C)CC1,101
Cc1ccc(NCCNc2ccc(C)cc2C)c(C)c1,100
O=c1nc2c(-c3cccc(Cl)c3)n[nH]n2c2ccccc12,90
CCOC(=O)c1c(-c2ccccc2)oc2ccc(OCC(=O)NN)cc12,100
CCCCCC1=C(O)c2ccccc2C(=O)C1=O,96
NS(=O)(=O)c1ccc(NNC(=O)CCc2ccccc2)cc1,98
CNC(=O)O/N=C/c1ccc(F)c(Cl)c1,97
Cc1noc(C)c1NC(=O)NCCOc1ccccc1,95

# Sorted by length of the SMILES (rising): 3 of the compounds above.
SMILES,RVFV N-RNA FP
CNC(=O)O/N=C/c1ccc(F)c(Cl)c1,97
Cc1noc(C)c1NC(=O)NCCOc1ccccc1,95
CCOC(=O)c1c(-c2ccccc2)oc2ccc(OCC(=O)NN)cc12,100

# Additional records.
SMILES,RVFV N-RNA FP
COC(=O)C1=C(C)NC2=C(C(=O)CC(c3ccco3)C2)C1c1ccccc1Br (stereo not drawn),97
CN1CCN(c2c(N)c(=O)oc3ccccc23)CC1,100
N#Cc1ccc(NC(=O)C2CCC(C(=O)Nc3ccc(C#N)cc3)CC2)cc1 (stereo not drawn),96
CN(C)/C=C1\C(=O)N(c2ccc(F)cc2F)C(c2cccnc2)S1(=O)=O (stereo not drawn),94
COc1cc(C(=O)Nc2ccccc2C(=O)N2CCCCC2)cc(OC)c1OC,101
S=C(NCCc1ccccc1)NC1CC1,98
C=C1/C(=C\C=C2/CCC[C@]3(C)[C@@H]([C@H](C)/C=C/[C@@H](O)C4CC4)CC[C@@H]23)C[C@@H](O)C[C@@H]1O,90&96
CCC1CCC(NCC(C)(C)CN(C)C)CC1 (stereo not drawn),97
O=C(CN1C(=O)CSCC1=O)Nc1ccc(Cl)cc1,99
COc1cc(NC(=S)N2CCN(CCO)CC2)c(OC)cc1Cl,95
COc1cc(C(F)(F)F)nc2c(I)c(C(C)(C)C)nn12,90
CCCC(=O)NCCc1c2n(c3ccc(OC)cc13)CCCc1ccccc1-2,97
NNC(=O)c1csc(-c2ccncc2)n1,105
O=C(O)COc1ccc(NC(=O)c2ccccc2F)cc1,107
Cc1cc(N/C=C(\C#N)C(=O)c2cc(C)oc2C(F)(F)F)no1,104
CSc1nc(Sc2ccccc2)c(C#N)c(Sc2ccccc2)n1,97
N#CCOc1ccc(Cl)c(Cl)c1,102
N=C(N)c1ccc(N=NNc2ccc(C(=N)N)cc2)cc1 (tested in a mixture with another compound),104
C=CCN(Cc1nc(-c2ccccc2)no1)C(=O)c1ccccc1,94
CC1Cc2ccccc2N1C(=O)c1ccnc(C(C)(C)C)c1 (stereo not drawn),95
C=CCNc1ncnc2ccc(Br)cc12,98
CCNS(=O)(=O)c1ccc(CCC(=O)N2CCCCC2)cc1,94
O=C1CC2(CCN(C(=O)/C=C\c3ccccc3)CC2)Oc2ccccc21,103
CC1(C)CC(NC(=S)NC2CC2)CC(C)(C)N1,99
O=C1CC(N(C(=O)c2ccco2)c2cccc(Cl)c2)C(=O)N1c1cccc(Cl)c1 (stereo not drawn),103
C=CCOC(=O)C1=C(C)OC(N)=C(C(=O)OC)C12C(=O)Nc1ccccc12 (stereo not drawn),100
Cn1c(=O)n(C)c(=O)n(C)c1=O,94
CN(C)C(=O)Oc1nnc(SCC(=O)c2ccc3c(c2)OCCO3)n1C1CC1,94
CC(C(=O)c1ccccc1)S(=O)(=O)c1ccccc1 (stereo not drawn),96
COc1ccccc1N1CCN(CC(O)COc2cccc3ccccc23)CC1 (stereo not drawn),98&101&90
O=C(CN1C(=O)c2ccccc2C1=O)ON=C1CCCCC1,101
CC(=O)Nc1ccccc1N1CCN(S(C)(=O)=O)CC1,100
CCCCNC(=O)C12CCC(C)(C(=O)C1)C2(C)C (stereo not drawn),101
O=C(O)c1cc2cc(F)ccc2[nH]1,91
C#CCSc1nnc2[nH]c(=O)cc(CCC)n12,95
CSc1nc(-n2nc(C)cc2C)c2c3c(sc2n1)COC(C)(C)C3,91
O=C(CN1CCC(c2nc3ccccc3[nH]2)CC1)N1CCCCC1,97
N=C1C(NO)=NC(c2ccccc2)N1O (stereo not drawn),100
Cc1cc(C(=O)N/N=C/C(C)(C)C)nn1C,79
CCN(C(=O)c1cccs1)c1ccccc1,97
CC1(C)C/C(=N/O)c2ccoc2C1,98
CCn1cc(C(=O)O)c(=O)c2cc(F)c(N3CCN(C(=S)Nc4ccc5c(c4)OCO5)CC3)cc21,102
O=S(=O)(Cc1ccccc1Cl)NCc1cccnc1,96
Clc1nc2c(Cl)cccc2s1,92
Oc1ccc(C=Nc2ccc(Nc3ccccc3)cc2)c(O)c1,104
O=C(NCc1cccs1)c1cc(Br)cs1,98
CCn1cc(/C=C(/C#N)c2ccccc2Cl)c2ccccc21,90
CNC(=O)Cc1cc(=O)[nH]c(=O)[nH]1,91
O=C(Oc1cc(=O)oc2c1c(=O)n1c3c(cccc23)CC1)c1ccco1,89
COc1ccc(OC(=O)C2CCN(c3ccc(C(F)(F)F)cn3)CC2)cc1,92
CCCc1c(C(=O)Nc2ccc3c(c2)OCCO3)cnn1-c1ccccc1,90
Cc1ccccc1-n1nc2c(c1NC(=O)c1ccc(S(=O)(=O)N3CCOCC3)cc1)CS(=O)C2 (stereo not drawn),90
COC(=O)c1cccc(NS(=O)(=O)c2ccc(OC)c(Cl)c2)c1C,93

# Structures shown so far containing a Cl atom (21):
SMILES,RVFV N-RNA FP
NNC(=O)C(O)c1ccc(Cl)cc1 (stereo not drawn),111
Cc1nc(C)c(-c2ccn(C(=O)Nc3c(-c4c(Cl)cccc4Cl)noc3C)n2)s1,92
Cc1c(Cl)cccc1NS(=O)(=O)c1cc2c3c(c1)C(C)C(=O)N3CCC2 (stereo not drawn),95
CS(=O)(=O)N1CCN(C(=O)COc2ccc(F)c(Cl)c2)CC1,91
CS(=O)(=O)Nc1cc(Cl)ccc1Oc1ccccc1,94
Cc1onc(-c2c(Cl)cccc2Cl)c1/C(N)=N/OC(=O)C(C)(C)C,93
COc1cccc(/C=N/NC(=O)c2cccc(Cl)c2)c1O,93
C#CCN(C)CCCOc1ccc(Cl)cc1Cl,99&98
CN1CCC(NC(=O)c2cc(Br)ccc2Cl)CC1,100
CCSc1n[nH]c(-c2ccc(Cl)cc2)n1,95
CCOC(=O)N1CCC2(CC1)C(C#N)=C(N)Oc1c2c(C)nn1-c1cccc(Cl)c1,99
O=c1nc2c(-c3cccc(Cl)c3)n[nH]n2c2ccccc12,90
CNC(=O)O/N=C/c1ccc(F)c(Cl)c1,97
O=C(CN1C(=O)CSCC1=O)Nc1ccc(Cl)cc1,99
COc1cc(NC(=S)N2CCN(CCO)CC2)c(OC)cc1Cl,95
N#CCOc1ccc(Cl)c(Cl)c1,102
O=C1CC(N(C(=O)c2ccco2)c2cccc(Cl)c2)C(=O)N1c1cccc(Cl)c1 (stereo not drawn),103
O=S(=O)(Cc1ccccc1Cl)NCc1cccnc1,96
Clc1nc2c(Cl)cccc2s1,92
CCn1cc(/C=C(/C#N)c2ccccc2Cl)c2ccccc21,90
COC(=O)c1cccc(NS(=O)(=O)c2ccc(OC)c(Cl)c2)c1C,93
